Source: PubChem (several laboratories)
Mtb hypoxia rep – PubChem AID 1159583 | 300,000 compounds, 0.1% hits | M. tuberculosis hypoxia-regulated fluorescent reporter, fluorescence | fluorescence inhibition, % (concentration not given with the values);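 active means 35 to 45% if threefold the growth effect, above 45% if 1.5-fold the growth effect; inactive means the rest, general growth blockers included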;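 further: wells of about 50 µL received 100 nL stock; 0% = vehicle wells and 100% = reference inhibitor wells; whole bacteria with a GFP reporter of the hypoxia response; strong numbers were not always called active; many hits fall short of the cut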
BJeLR lethal – MLPCN primary cell-based screen for lethality selective to Ras in HRASV12 cells. BJeLR (HRASV12) viability, CellTiter-Glo ATP luminescence, 48 h; reference of the scale not given here. inhibition, % (test concentration not listed). 300,000 compounds, 0.17% hits. AID 1554, 2009;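 active means replicate mean above 50%; inconclusive means above 50% but judged a plate artefact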;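 further: 50 nL library stock added to about 25 µL; numbers are from one replicate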
Bead autofluor – compound fluorescence in toxin protease inhibitor counterscreen; compound autofluorescence counterscreen, microsphere flow cytometry; hits give high values; fluorescence intensity (no concentration beside the values); 360,000 compounds, 3.1% hits; AID 624483;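 active means at least 3 SD above the mean of all compounds, about 16000 in these data; inconclusive means too few beads counted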;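 further: 100 nL of 1 mM stock went into each well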
PrP UTR inh – inhibition of PrP 5' UTR reporter expression; cell-based PrP 5' UTR mRNA reporter, plate reader; inhibition, % (concentration not given with the values); 340,000 compounds, 0.35% hits; AID 488862, 2010;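 active means every replicate at 50% or more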;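 further: 0 = median of the neutral control wells; tested in H4 reporter cells; numbers are from one replicate; inactives centre near -14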
Sa RN4220 lethal – growth inhibition of S. aureus RN4220, primary screen, OD600. 16 h. inhibition, % (no concentration beside the values). 330,000 compounds, 0.33% hits;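 active means z-score of -3 or lower and OD600 up to 0.18 on both plates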;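 further: plate controls were untreated cells for no effect and reference antibiotic for full effect; stock transfer was 100 nL into about 80 µL; one replicate is shown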
ugtP null kill – growth inhibition of ugtP-null S. aureus, primary screen, RN4220 ugtP deletion, OD600; 16 h; some inactives read as strong as hits; growth inhibition, % (no concentration beside the values); 330,000 compounds, 0.54% hits; AID 1259309, 2017;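 active means z-score under -3 and OD600 up to 0.15 on both plates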;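 further: plate controls were untreated wells for no effect and antibiotic for full effect; wells of about 80 µL received 100 nL stock; the first replicate is given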
Mtb hypoxia rep growth – second read-out of Mtb hypoxia rep, no call of its own (marks repeat the call); growth inhibition, %; measured here: M. tuberculosis growth (absorbance);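 0% = vehicle and 100% = reference antibiotic; read after six days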
* marks the source's active call; other numbers are inactive results; ? = inconclusive; · = no result given.

structure	Mtb hypoxia rep	Mtb hypoxia rep growth	BJeLR lethal	Bead autofluor	PrP UTR inh	Sa RN4220 lethal	ugtP null kill
COc1ccc(Nc2cc3n(c(=O)n2)CCc2cc(OC)c(OC)cc2-3)cc1	10.9	5.6	-3.5	3672	-4.0	-1.2	-2.7
COC(=O)CN1C(=O)CC(C)(C)Sc2ccccc21	3.2	-0.4	1.8	5174	-12.8	3.3	6.0
COc1ccc(N(C(C)C(=O)NN=Cc2cc(Br)c(C)o2)S(C)(=O)=O)cc1 (centres undefined)	2.6	-0.5	·	·	·	8.2	4.8
Cc1ccc2c(c1)C(c1ccc(F)cc1)N(C(=O)c1cc3ccccc3oc1=O)CC(=O)N2 (centres undefined)	7.9	7.1	8.5	5863	-8.2	4.7	16.5
CSc1ccc(/C=C/C(=O)NC(=O)c2ccccc2O)cc1	-1.2	-3.7	7.9	3215	-35.6	3.0	6.5
CCc1ccc(NC(=O)/C(C#N)=C/c2ccncc2)cc1	0.6	20.8	5.9	5638	-4.8	2.8	-6.3
Cc1nc2oc3c(NCc4ccccc4)ncnc3c2c2c1COC(C)(C)C2	18.4	2.8	-10.2	9519	-16.6	3.9	10.9
CCCNc1oc(-c2cccc3ccccc23)nc1C#N	-4.6	5.5	-0.4	10718	-33.3	12.3	-11.1
COc1ccc(N(CC(=O)NCCSc2ccccc2)S(=O)(=O)c2ccccc2)cc1OC	-2.1	-1.1	1.6	4437	10.7	1.8	7.4
Cc1ccc2ncnc(NCCC(=O)O)c2c1	6.7	13.9	3.3	14445	2.2	7.0	10.8
O=S(=O)(Oc1ccccc1/C=N/n1cnnc1)c1ccccc1	·	·	-1.2	2602	-22.5	·	·
COC(=O)c1cc2c(ccn2-c2ccc(F)cc2)n1Cc1ccc(OC)cc1	13.3	2.0	-5.7	2478	-13.0	-3.2	41.0
CC(C(=O)NCCc1ccc(F)cc1)N1CCN(Cc2ccccc2)CC1 (centres undefined)	15.0	5.9	24.2	5082	-17.2	13.2	14.3
Cc1ccc(-c2nc(NC(=O)CSc3nnnn3-c3ccccc3)ns2)cc1	·	·	-2.6	4103	-24.8	2.6	3.2
O=C(COC(=O)c1ccc(O)cc1)Nc1ccc(OC(F)F)cc1	-2.4	-6.4	-5.3	4544	-18.6	4.0	4.6
C/C(=C\C(=O)OCC(=O)NCc1ccccc1)C(=O)OCC(=O)NCc1ccccc1	-0.9	-3.9	-13.1	2528	5.8	-2.0	-2.6
COc1cc(NC(=S)N2CCN(c3ccccn3)CC2)c(OC)cc1Cl	4.2	-1.2	-18.9	2022	-6.8	3.2	10.8
COc1cc(C(=O)OCc2nc3ccsc3c(=O)[nH]2)c([N+](=O)[O-])cc1OC	-11.2	-3.9	0.9	5871	-27.8	-1.0	5.6
CCOC(=O)NC(=O)/C(C=Nc1ccc(Cl)cc1)=C(\C)O	3.0	6.4	-8.5	4504	-36.8	4.2	4.8
COc1ccc2oc(C(=O)c3ccccc3)c(N)c2c1	7.7	-6.6	-4.1	·	·	1.7	2.7
Cc1noc(C)c1C(=O)N1CCN(S(=O)(=O)c2cccs2)CC1	-4.9	-1.9	-15.2	5384	-9.8	1.2	2.6
CC(=O)c1c(C)[nH]c(C(=O)OCC(=O)N2c3ccccc3NC(=O)C2(C)C)c1C	7.6	6.5	4.2	2055	-0.2	6.3	2.3
Cc1nc(NCc2ccco2)nc2c1C(=O)CC(C)C2 (centres undefined)	·	·	7.0	2110	1.0	4.7	3.1
O=C(O)/C=C/C(=O)NCc1ccccn1	-0.5	-0.2	6.9	4528	-13.6	2.8	-3.4
Cc1cc([N+](=O)[O-])nn1CCCC(=O)Nc1ccc2c(c1)OCO2	10.7	5.4	-5.5	6512	-20.7	0.4	12.7
Nc1nc2ccccc2n1Cc1ccc(Cl)c(Cl)c1	-5.6	0.5	13.5	3724	-19.0	2.3	-12.3
COc1ccc(C2C3C(=O)N(C(C)(C)C)C(=O)C3[C@]3(Cc4ccc(Cl)cc4)C(=O)N(c4ccc(Br)cc4)C(=O)N23)cc1 (some centres undefined)	-2.2	9.4	·	·	·	-0.4	-21.2
C=CCN1C(=O)CSC1=Nc1nccs1	-5.3	-2.3	·	·	·	-4.6	-9.7
O=C(COC(=O)Cc1ccccc1F)Nc1cc(S(=O)(=O)N2CCOCC2)ccc1N1CCCC1	14.2	0.1	3.0	3449	3.0	7.5	11.4
COc1cccc(O)c1CN1CCC(C(=O)Nc2ccc(Oc3cccnc3)cc2)CC1	5.4	-1.0	-4.4	6909	-13.4	-5.0	-6.3
CCN1CCN(S(=O)(=O)c2ccc(Cl)c(C(=O)Nc3ccc(C(=O)N(CC)CC)cc3)c2)CC1	-6.9	8.3	-1.0	?	-8.5	3.6	-2.9
CN(C)/C=C/c1oc2ccc(O)cc2c1[N+](=O)[O-]	·	·	-2.7	4612	-40.4	·	·
CCCn1c(=O)n(C)c(=O)c2c(SCC(=O)NCC(c3ccccc3)N(C)C)nc(CC(C)C)nc21 (centres undefined)	-1.4	6.4	9.2	5163	-15.0	-0.8	-8.1
O=C(NNC(=S)Nc1ccccc1)c1ccncc1	-7.7	7.1	-8.2	3496	-40.8	10.7	2.8
CC(=O)N=C1SC2CS(=O)(=O)CC2N1Cc1ccc(C)cc1 (centres undefined)	18.4	9.7	-1.3	4456	·	2.1	8.9
COc1cccc(C(=O)CC(C(=O)O)c2ccc(F)cc2)c1 (centres undefined)	4.0	8.3	4.8	2144	-19.0	5.0	6.9
COc1cc2cc(C)c3nnc(SCC(=O)Nc4cc(C)on4)n3c2cc1OC	9.6	10.9	-6.7	4024	-9.0	2.3	0.6
Nc1c(S(=O)(=O)c2ccccc2)c2nc3ccccc3nc2n1CCN1CCOCC1	-4.0	5.9	0.7	2181	-12.7	0.2	-2.7
CCOC(=O)c1c(C)nn(-c2ccc(NC(=O)c3c(C)noc3C)cc2)c1C	8.3	7.5	-5.2	3463	8.3	3.4	8.3
Cc1noc(/C=C/c2cccs2)c1S(=O)(=O)N1CCC(C(=O)NCCCN2CCC(C)CC2)CC1	3.1	9.4	6.6	5629	-2.0	-0.1	5.5
COc1ccc(N(CC(=O)NN=Cc2ccc(C(=O)O)cc2)S(=O)(=O)c2ccc(NC(C)=O)cc2)cc1	8.3	-4.3	·	·	·	0.6	0.0
CCOC(=O)NC(=O)c1cn(N(C)c2ncc(C(F)(F)F)cc2Cl)c(=O)[nH]c1=O	11.6	8.7	-6.7	21416*	-7.3	6.7	0.8
CCN(CC)S(=O)(=O)c1ccc(OC)c(NC(=O)c2cc(=O)[nH]c3ccccc23)c1	1.7	7.3	5.2	3748	-12.4	11.1	3.8
COCCN1Cc2cccc(C(=O)NCc3ccc4c(c3)OCO4)c2C1=O	4.2	2.3	-4.5	2437	-45.6	7.8	3.8
COCCCNC(=O)c1ccc(CS(=O)(=O)c2ccccc2C)o1	-14.3	7.5	7.7	3819	-4.6	0.2	5.3
COc1ccccc1OCCC(=O)OCC(=O)NCc1ccccc1	16.4	9.3	-7.2	10150	-17.1	10.7	12.7
CN(c1cc(=O)n2ccccc2n1)C1CCCCC1	11.0	9.9	-1.2	2458	-10.8	3.2	2.1
Cn1c(=O)cc(NCc2ccccc2)[nH]c1=O	·	·	-11.0	2253	-14.7	-1.6	-6.7
CCn1cc(/C=C/C(=O)Nc2ccn(Cc3c(F)c(F)cc(F)c3F)n2)cn1	7.3	2.7	2.3	2636	5.4	4.4	0.5
O=C(Nc1ccc(-c2n[nH]c(=S)o2)cc1)c1ccccc1Cl	7.5	7.5	-1.8	3574	-23.9	7.4	11.9

Fetched by compound from the list above, seven records:
structure	Mtb hypoxia rep	Mtb hypoxia rep growth	BJeLR lethal	Bead autofluor	PrP UTR inh	Sa RN4220 lethal	ugtP null kill
CC(=O)N=C1SC2CS(=O)(=O)CC2N1Cc1ccc(C)cc1 (centres undefined)	18.4	9.7	-1.3	4456	·	2.1	8.9
Cn1c(=O)cc(NCc2ccccc2)[nH]c1=O	·	·	-11.0	2253	-14.7	-1.6	-6.7
O=C(NNC(=S)Nc1ccccc1)c1ccncc1	-7.7	7.1	-8.2	3496	-40.8	10.7	2.8
COc1ccc(N(CC(=O)NN=Cc2ccc(C(=O)O)cc2)S(=O)(=O)c2ccc(NC(C)=O)cc2)cc1	8.3	-4.3	·	·	·	0.6	0.0
Nc1nc2ccccc2n1Cc1ccc(Cl)c(Cl)c1	-5.6	0.5	13.5	3724	-19.0	2.3	-12.3
CCCn1c(=O)n(C)c(=O)c2c(SCC(=O)NCC(c3ccccc3)N(C)C)nc(CC(C)C)nc21 (centres undefined)	-1.4	6.4	9.2	5163	-15.0	-0.8	-8.1
CN(c1cc(=O)n2ccccc2n1)C1CCCCC1	11.0	9.9	-1.2	2458	-10.8	3.2	2.1

The list continues:
structure	Mtb hypoxia rep	Mtb hypoxia rep growth	BJeLR lethal	Bead autofluor	PrP UTR inh	Sa RN4220 lethal	ugtP null kill
CNc1oc(C)nc1S(=O)(=O)c1ccc(C)cc1	20.3	15.3	-3.8	3267	-7.3	3.0	9.3
CN1CCN(NC(=O)/C=C/c2cccc(Cl)c2)CC1	-9.1	-6.3	-16.8	6196	-9.0	3.4	0.3
CCOC(=O)c1c(NC(=O)c2nn(C)cc2[N+](=O)[O-])sc(C)c1C	-10.3	-0.2	1.5	4042	-16.2	1.2	-4.2
CCN(CC(=O)Nc1cccc(S(=O)(=O)N2CCCCC2)c1)Cc1ccccc1	4.9	5.4	-5.7	5343	-41.0	3.1	2.2
CC(C)(C)CN1CCNC(=O)C1CC(=O)NCCN1CCCc2ccccc21 (centres undefined)	0.1	0.0	3.2	4363	-16.0	1.0	-2.9
Cc1cc(NC(=O)c2ccccc2Oc2ccccc2)no1	14.0	9.7	-5.1	6642	-8.4	2.5	3.3
O=C1c2ccccc2C(Nc2ccc(S(=O)(=O)N3CCCCCC3)cc2)N1Cc1ccco1 (centres undefined)	-7.4	-8.9	7.3	5528	-9.1	20.6	13.5
CC(C)CCNc1ncnc2c1cnn2Cc1ccccc1Cl	-2.6	9.9	2.8	3114	-6.8	-10.6	1.0
Oc1c(C=Nc2ccc(Cl)cn2)sc2ccccc12	-1.5	-4.1	-1.1	5317	-106.0	4.8	-6.3
CCNc1nc(NCC)nc(C(=O)OCCO)n1	7.2	2.4	-0.2	6522	-34.3	6.1	11.6
CSc1ccc(CCNC(=O)CN2C(=O)c3cccnc3Oc3ccc(C)cc32)cc1	-7.1	-7.5	11.3	4740	0.0	-5.5	1.5
Cn1cccc1-c1nc2ccc(NC(=O)c3ccco3)cc2[nH]1	·	·	-4.3	2752	-71.8	-5.2	-1.6
COc1ccc2c(c1)C(c1ccc(Cl)cc1)NC(=O)C2 (centres undefined)	5.1	3.6	16.9	2838	0.4	3.2	8.8
O=C(Nc1ccccc1N1CCCCC1)C1=COCCO1	2.9	-7.9	·	5484	-2.3	-0.6	-0.2
COc1ccc(S(=O)(=O)Nc2ccc3c(c2)C(=O)N(C(C)CO)CC(C)C(CN(C)S(=O)(=O)c2ccc(F)cc2)O3)cc1 (centres undefined)	-2.6	9.4	·	·	·	4.9	8.2
COc1ccc2cc3c(nc2c1)OCC3	19.1	11.9	0.7	2858	-17.3	1.6	3.2
N#Cc1sc(C(N)=O)c(-c2ccccc2)c1-c1ccccc1	11.5	10.7	5.7	4235	-30.8	0.2	3.7
CC1CC2(O)c3no[n+]([O-])c3CCC2N1O (centres undefined)	8.3	5.6	-5.9	22460*	-3.1	4.1	0.6
CC(=NNC(=O)c1cccs1)c1cccs1	9.1	5.0	·	·	·	2.9	-5.8
CSc1nn2c(C)c(C)c(C)nc2c1C#N	-11.3	12.0	5.0	5021	4.5	1.7	-4.8
Cc1cc(/N=C/C=C2/N(C)c3ccccc3C2(C)C)n(CCC#N)n1	13.9	8.9	·	3325	-16.5	5.1	-12.5
